VDR inh – inhibitors of human vitamin D receptor; 0.93% of 400,000 active; Potency, µM, without a hit: max response, negative = inhibition, actives largely listed as inhibitors; P11473; AID 504847; VDR-SRC2-3 peptide fluorescence polarization, 2 h; active means well fitted inhibition curve with a large enough effect; inconclusive means small, poorly fitted or top-dose-only effect, or another doubt; inactive means no such curve, though single readings can be large or run the other way; further: series mostly up to about 120 µM
Target sequence (P11473 whole entry, looked up): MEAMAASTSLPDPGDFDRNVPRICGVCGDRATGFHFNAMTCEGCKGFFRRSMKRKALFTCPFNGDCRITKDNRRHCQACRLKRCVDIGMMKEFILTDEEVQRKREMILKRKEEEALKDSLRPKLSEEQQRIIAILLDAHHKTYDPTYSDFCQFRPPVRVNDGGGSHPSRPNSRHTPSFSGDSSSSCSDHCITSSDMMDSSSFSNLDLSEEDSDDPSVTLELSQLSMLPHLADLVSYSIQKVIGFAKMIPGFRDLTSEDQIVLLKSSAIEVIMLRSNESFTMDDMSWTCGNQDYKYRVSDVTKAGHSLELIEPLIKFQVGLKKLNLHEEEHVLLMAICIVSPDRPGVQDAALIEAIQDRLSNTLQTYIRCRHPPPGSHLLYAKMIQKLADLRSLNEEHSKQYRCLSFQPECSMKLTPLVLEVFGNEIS
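Fluorescence polarization assay of small-molecule disruption of VDR binding to coregulator peptide SRC2-3. Compounds and controls pin-transferred, then read after 2 h incubation at ambient room temperature.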
Numbers without * were called inactive; ? = inconclusive; [ ] = remark or other dose. On the % scale 0 is the no-effect control and ±100 the full control effect; potency means the concentration at half of the fitted maximal effect.

SMILES | VDR inh
COc1ccc(CN(C)C2CCCCC2)c(C)c1C | -14%
COc1ccc(Nc2nccc(N(C)C)c2C#N)cc1 | 14%
O=C(CSc1nnc2sc3ccccc3n12)NCc1ccc2c(c1)OCO2 | -11%
Cc1c(NS(=O)(=O)c2cccc(C(=O)N3CCC(C(N)=O)CC3)c2)c(=O)n(-c2ccccc2)n1C | 3%
Cc1cc(Cn2nc(-c3ccccc3)cc2C(=O)NCc2cccc(C(F)(F)F)c2)on1 | 3%
O=C1Nc2ccc(Br)cc2C1(O)Cc1ccncc1 (stereo not drawn) | 12%
CC(=NNC(=S)N1CC2CCC(CC2)C1)c1ccncn1 | -24%
O=C(COC(=O)c1ccc(S(=O)(=O)NCc2ccco2)cc1)NC1CCCCCC1 | 117%[activator]
CNC(=S)N/N=C1\C(=O)c2cccc3cccc1c23 | -3%
COC(=O)C1(S(=O)(=O)c2cccc3nsnc23)CC1 | -12%
OC(COCC1COc2ccccc2O1)CN1CCN(c2ccccc2F)CC1 (stereo not drawn) | 16%
Cc1cccc(NC(=O)c2oc3ccc(S(=O)(=O)N4CCC5(CC4)OCCO5)cc3c2C)c1C | 4%
CC(C)(C)OC(=O)NCc1ccc(CNC(=O)c2nc[nH]c2C(=O)NCc2ccc(CNC(=O)OC(C)(C)C)cc2)cc1 | 2%
COc1ccc(NC(=O)c2ccc(NC(=O)N3CCSc4ncccc43)cc2)cc1 | 6%
CC(C)(C)c1ccc(CN2C(=O)CSC2=O)cc1 | 2%
NCCCNC(=O)Cn1c(=O)c2c3c(sc2n(Cc2ccccc2)c1=O)CCCC3 | -2%
Cc1coc2c(C)c3oc(=O)c(CC(=O)NCCc4ccc(Cl)cc4)c(C)c3cc12 | 4%
O=C(NCC1CCCO1)c1nn2c(C(F)(F)F)cc(-c3cccs3)nc2c1Br (stereo not drawn) | -13%
COc1ccc(C(=O)OCC(=O)Nc2c(C)cccc2C)c(OC)c1OC | -5%
Cc1ccc(C)c(N2CCN(C(=O)c3ccc(Nc4nc5ccccc5n5nnnc45)cc3)CC2)c1 | 0%
COC(=O)C(NC(=O)c1ccccc1)(Nc1nccs1)C(F)(F)F (stereo not drawn) | 0%
CNc1nc(N)c([N+](=O)[O-])c(NCC2CCCO2)n1 (stereo not drawn) | 5%
CCOC(=O)C1=C(C)N(c2ccc(OC)cc2)C(=O)/C1=C\c1ccc(O)c(OCC)c1 | ?
CC(C)(C)c1ccc(OCc2nc(-c3ccccn3)no2)c(Br)c1 | -9%
CCOC(=O)CC1(c2ccc(OC)c(OC)c2)C(=O)c2ccccc2C1=O | 6%

The listing continues.
SMILES | VDR inh
CCOc1ccccc1C(=O)Nc1c(NC)c2ccccc2oc1=O | 3%
CCCNc1cc(C)oc(=O)c1C(=O)CCC | 0%
Cc1ccc[n+](-c2[nH]c(=O)sc2/C=N/N=C(\[O-])c2cccnc2)c1 | -1%
Cc1ccc2c(c1)-c1c(ssc1=S)C(C)(C)N2C(=O)CSC1=NCCS1 | 3%
CC(C)CNC(=O)CN(C1CCCCC1)S(=O)(=O)c1ccccc1 | -14%
c1ccc(C2=NN(c3ccccc3)C(c3ccco3)C2)cc1 (stereo not drawn) | 30%[activator]
COc1ccc(NC(=O)c2cc3nc(-c4ccccc4)cc(C)n3n2)cc1OC | -5%
Cc1ccc(C(=O)N/N=C\c2ccc(Br)o2)o1 | 4%
CCCCC(=O)Nc1nnc(/C=C/c2ccc(OC)cc2)s1 | 2%
CN(C(=O)c1cccc(NC(=O)Cc2ccc(NC(=O)C3CCCN(C(=O)C4CCCCC4)C3)cc2)c1)C1CCC1 (stereo not drawn) | -2%
Cc1ccc(OCCNC(=O)c2cccc(S(=O)(=O)N3CCN(Cc4ccccc4)CC3)c2)cc1 | -4%
O=C(NCc1ccccc1Cl)c1cc(=O)[nH]c2ccccc12 | 11%
S=C(N/N=C/c1ccccc1Cl)Nc1ccccc1 | -8%
C/C=C(\C)C(=O)O[C@@H]([C@H](O)c1cc2ccc(=O)oc2cc1OC)C(C)(C)O | 3%
CC(C)CNc1nnnc2c1sc1nc(N3CCOCC3)c3c(c12)CCCC3 | -23%
COc1ccccc1CNC(=O)CN(C)CC(=O)Nc1ccccc1Br | -1%
CCn1cc(C(C)NC(=O)Nc2ccccc2C(=O)OC)c(C)n1 (stereo not drawn) | 15%
CC1=C(C(=O)OCC2CCCCC2)C(c2ccc(O)cc2)NC(=O)N1 (stereo not drawn) | -13%
O=C(NCCN1CCOCC1)C12CC3CC(C1)CC(c1ccccc1)(C3)C2 | -7%
COC(=O)COc1cccc(NS(=O)(=O)c2ccc(NC(C)=O)cc2)c1 | 7%
Cc1cc(C)n(CCC(=O)N2CCCC(Nc3ccc(F)cc3)C2)n1 (stereo not drawn) | -29%
Cc1csc2nc(-c3ccc(NS(=O)(=O)c4cccc(F)c4)cc3)cn12 | -2%
COCCNCC(=O)Nc1ccc(OC(F)(F)F)cc1 | -13%
CCn1c(=O)cc(OCC(=O)NC(C)c2ccc3c(c2)OCCO3)c2ccccc21 (stereo not drawn) | -24%
CCCN(CC1CC1)C(=O)Nc1ccccc1C | 6%

Next results:
SMILES | VDR inh
O=C(N/N=C/c1cccc([N+](=O)[O-])c1)C1CC(=O)N(c2ccc(Cl)cc2)C1 (stereo not drawn) | -8%
CCCOC(=O)/C(C(N)=NCc1ccccc1)=C(\O)OCCC | -4%
CC(NC(=O)C12CC3CC(CC(C3)C1)C2)C(=O)NN=Cc1ccc([N+](=O)[O-])o1 (stereo not drawn) | 3%
Cc1nn(C(C)C(=O)Nc2ccc3c(c2)OCO3)c(C)c1[N+](=O)[O-] (stereo not drawn) | 10%
Cc1ccc(S(=O)(=O)NCC(=O)NCC(=O)N2CCC(C)CC2)cc1 | 4%
CN1CCN(C(=O)c2ccc3c(Cl)c4c(nc3c2)CCCC4)CC1 | 18%
O=C(CCc1ccccc1)NC(NC(=S)Nc1ccc(Br)cc1)C(Cl)(Cl)Cl (stereo not drawn) | 4%
CCOC(=O)C1CCN(C(=O)CNC(=O)OC(C)(C)C)CC1 | -8%
COc1ccc(NC(=O)Nc2ccccc2F)cc1Cl | -17%
Cc1ccc(-n2ncc3c(N4CCN(C)CC4)ncnc32)cc1 | 6%
O=C(O)CCCNS(=O)(=O)c1cccc2nsnc12 | 23%
CC12CCC(C(N)=O)(c3nc4ccccc4nc31)C2(C)C (stereo not drawn) | 3%
Cc1ccc(N(C(=O)Cn2nnc(-c3ccc(C)o3)n2)C(C(=O)NC2CCCC2)c2ccncc2)cc1 (stereo not drawn) | -3%
CC(=O)N1CC[n+]2c(-c3ccc(Cl)cc3)csc21 | 20µM*
O=C(c1ccc(F)cc1)N1CCN(S(=O)(=O)c2ccc(Br)cc2)CC1 | 1%
Cn1c(=O)c2[nH]c(CCCc3ccc([N+](=O)[O-])cc3)nc2n(C)c1=O | -1%
CNS(=O)(=O)c1cccc(C(=O)OCC(=O)N2c3ccccc3CC2C)c1 (stereo not drawn) | 1%
COC(=O)c1cc2occc2n1CC(=O)N(C)C1CCCCC1 | 2%
Cc1ccc(CS(=O)(=O)CCC(=O)NCCN2CCCC2)cc1 | -3%
O=C1C=C(c2ccc(Oc3ccccc3)cc2)C[C@@H](c2ccc3c(c2)OCO3)C1 | -7%
Cc1ccnc(N2CCC(C(=O)NCc3ccccc3F)CC2)n1 | -2%
CSc1nc2ccc(NC(=O)C3CC(=O)N(Cc4ccccc4)C3)cc2s1 (stereo not drawn) | 15%
COc1ccc(NC(=O)CSc2ccc3nnc(CCNC(=O)c4ccccc4)n3n2)cc1OC | -16%
CCc1ccc(Nc2nnc(-c3cc4cc(OC)ccc4oc3=O)s2)cc1 | 6%
C#CCOCCOCCOCCNc1nc(N2CCN(C(=O)[C@H]([C@@H](C)O)n3cc(CCCCN)nn3)CC2)nc(N2CCN(C(=O)[C@H](C)n3cc(CCCN=C(N)N)nn3)CC2)n1 | -15%

(cont.)
SMILES | VDR inh
CC(=O)c1ccc(N2CCN(C(=O)c3cc4c(s3)CCCC4)CC2)cc1 | 5%
CN(C)C1(CNC(=O)COc2cccc(Cl)c2)CCCCC1 | -6%
O=C(NC1=NCCS1)c1cc(-c2cccnc2)nc2ccccc12 | -12%
COc1ccc(C(=O)Nc2ccc(S(=O)(=O)NC(C)=O)cc2)cc1[N+](=O)[O-] | -16%
CCN1CCN(c2nc3c(S(=O)(=O)c4ccc(Br)cc4)nnn3c3ccsc23)CC1 | 9%
COC(=O)c1cccc(NC(=O)CN2C(=O)C3CCCCC3C2=O)c1 (stereo not drawn) | 16%
NC(=O)c1ccccc1N=Cc1cccnc1 | 0%
COC(=O)c1sccc1S(=O)(=O)N(CC(=O)Nc1cc(C)ccc1C)c1ccc(C)c(C)c1 | 5%
S=C(Nc1ccc(Cl)cc1Cl)Nn1cnnc1 | ?
Cc1ccc(C(=O)NC(NCc2ccco2)C(Cl)(Cl)Cl)cc1 (stereo not drawn) | 3%
O=C(Nc1cccc2ccccc12)/C(Cl)=C/c1ccccc1 | 3%
CC(OC(=O)Cn1c(C(F)(F)F)nc2ccccc21)C(N)=O (stereo not drawn) | -19%
CCC(C)n1cnc2c(c1=O)c1nc3ccccc3nc1n2-c1ccc2c(c1)OCCO2 (stereo not drawn) | 12%
Cc1ccc(-c2nnc(SCC(=O)NC3CCCC3)n2C)cc1 | 4%
CCC(=O)Nc1nc2ccc(NC(=O)c3cc(OC)c(OC)c(OC)c3)cc2s1 | 5%
CN(C)CCCn1cnc2c(c1=N)C(c1ccccc1)c1ccc3ccccc3c1O2 (stereo not drawn) | -10%
CCC1CCC(N2CCN(c3ccc([N+](=O)[O-])cc3)CC2)CC1 (stereo not drawn) | -10%
CCCCN1C(=O)C(=O)N(CC(=O)c2ccc3c(c2)OCO3)C1=O | -14%
O=C(Nc1ccc2c(c1)OCO2)C1CCCN1C(=O)Nc1ccccc1F (stereo not drawn) | 10%
Cn1c(=O)sc2cc(NS(=O)(=O)c3ccc(C(C)(C)C)cc3)ccc21 | 22%
CCN1C(=O)/C(=C\C=C2/C=CC=CN2CC)SC1=S | ?
NC(=S)Cc1nc2n(n1)Cc1ccccc1-2 | -26%
O=C(CSc1ccc(Cl)cc1)N1CCC(c2nc3ccccc3s2)CC1 | 6%
CCCCN(C1CCS(=O)(=O)C1)S(=O)(=O)c1ccc(OC)cc1 (stereo not drawn) | 9%
COc1ccccc1N1CCN(Cc2ccc(-c3ccccc3[N+](=O)[O-])o2)CC1 | -1%

Continuation.
SMILES | VDR inh
Cc1cc(Cl)cc2sc(NC(=O)c3ccco3)nc12 | -1%
CC(=O)NCCc1ccc(C(=O)COC(=O)c2ccco2)cc1 | 3%
O=C(CSc1nnc(CNC(=O)c2cccs2)o1)Nc1cccc(F)c1 | 0%
COc1ccc(OCCSc2nnc3c(Cl)cc(Cl)cn23)cc1 | 1%
N#CC1(Nc2cccc(Br)c2)C(=O)Nc2ccccc21 (stereo not drawn) | ?
O=C(Nc1ccc(Br)cc1)c1ccc(CSC2=NCCS2)cc1 | 9%
Cc1cc(C)nc(SCc2ccc(C(=O)N/N=C/c3ccncc3)cc2)n1 | 1%
COc1ccccc1C(=O)NCC(c1cccs1)N1CCc2ccccc21 (stereo not drawn) | -6%
O=C(CN1CCN(C(=O)CNC(=O)c2ccc(N3CCCC3=O)cc2)CC1)Nc1ccccc1Cl | 1%
O=C(COc1ccc(Cl)cc1Br)Nc1ccccc1N1CCCC1 | -8%
O=C(COc1ccc(Cl)cc1)NCc1nnc(SCC(=O)c2ccccc2)o1 | 22%
COC(=O)C1=C(C(=O)OC)[C@@H]2Nc3ccccc3[C@@]23C[C@@H](C(=O)OC)N(C(=O)c2ccco2)C3=N1 | 3%
CCCCN1CC(c2nc3ccccc3n2CCCCOc2cc(C)cc(C)c2)CC1=O (stereo not drawn) | 0%
O=C(Nc1ccon1)c1ccc(S(=O)(=O)N2CCOCC2)cc1 | -11%
O=C(NC1CC(=O)N(c2ccc(F)cc2)C1)c1ccc(S(=O)(=O)N2CCCCC2)cc1 (stereo not drawn) | 4%
c1ccc(CNCCCNCCCCNCCCNCc2ccccc2)cc1 | -10%
Cc1ccc(-n2c(SCC(=O)N3c4ccccc4Sc4ccccc43)nnc2-c2ccncc2)cc1 | 6%
Cc1ccn2c(Nc3c(C)cccc3C)c(-c3ccsc3)nc2c1 | -6%

Exported field by field: two of the compounds above.
O=C(Nc1ccc(Br)cc1)c1ccc(CSC2=NCCS2)cc1
  VDR inh: 9%

Cc1cc(C)nc(SCc2ccc(C(=O)N/N=C/c3ccncc3)cc2)n1
  VDR inh: 1%

Of the compounds above, these have fluorine:
SMILES | VDR inh
Cc1cc(Cn2nc(-c3ccccc3)cc2C(=O)NCc2cccc(C(F)(F)F)c2)on1 | 3%
OC(COCC1COc2ccccc2O1)CN1CCN(c2ccccc2F)CC1 (stereo not drawn) | 16%
O=C(NCC1CCCO1)c1nn2c(C(F)(F)F)cc(-c3cccs3)nc2c1Br (stereo not drawn) | -13%
COC(=O)C(NC(=O)c1ccccc1)(Nc1nccs1)C(F)(F)F (stereo not drawn) | 0%
Cc1cc(C)n(CCC(=O)N2CCCC(Nc3ccc(F)cc3)C2)n1 (stereo not drawn) | -29%
Cc1csc2nc(-c3ccc(NS(=O)(=O)c4cccc(F)c4)cc3)cn12 | -2%
COCCNCC(=O)Nc1ccc(OC(F)(F)F)cc1 | -13%
COc1ccc(NC(=O)Nc2ccccc2F)cc1Cl | -17%
O=C(c1ccc(F)cc1)N1CCN(S(=O)(=O)c2ccc(Br)cc2)CC1 | 1%
Cc1ccnc(N2CCC(C(=O)NCc3ccccc3F)CC2)n1 | -2%
CC(OC(=O)Cn1c(C(F)(F)F)nc2ccccc21)C(N)=O (stereo not drawn) | -19%
O=C(Nc1ccc2c(c1)OCO2)C1CCCN1C(=O)Nc1ccccc1F (stereo not drawn) | 10%
O=C(CSc1nnc(CNC(=O)c2cccs2)o1)Nc1cccc(F)c1 | 0%
O=C(NC1CC(=O)N(c2ccc(F)cc2)C1)c1ccc(S(=O)(=O)N2CCCCC2)cc1 (stereo not drawn) | 4%

Some of the compounds tested; the hit share may differ from the screen's.
